Assay outcomes from PubChem BioAssay.
MT1-MMP promoter: inhibitors of MT1-MMP promoter transcription, cell-based, luciferase reporter, luminescence (AID 618); MT1-MMP promoter luciferase reporter cells, luminescence; calls from a first round at 10 µM; hits with a dose series show EC50 in µM; 0.62% of 87,000 active;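 active means over half of the reporter light lost at 10 µM or EC50 under 50 µM; inactive means the rest and hits that failed the dose series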;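 further: actives suppress MT1-MMP promoter-driven transcription so potencies describe inhibitors; HT1080 fibrosarcoma cells; overnight exposure; toxic or luciferase-blocking compounds were not removed from the actives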
Hsc70: Hsc70 inhibitors, probe displacement, primary screen, biochemical, fluorescence polarization (AID 568) | Hsc70 fluorescence polarization, probe displacement; higher % means a stronger effect; strong numbers were not always called active | displacement, % at 20 µM, or IC50 in µM where a hit was titrated | 83,000 tested, under 10 active;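 active means displacement above 50% without optical interference and an IC50 on retest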;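 further: ATPase domain with a fluorescein-tagged ATP probe; 0% = vehicle and 100% = excess ADP; read after one hour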
WNV NS2B-NS3 inh: inhibitors of West Nile virus NS2B-NS3 protease; P06935; WNV NS2B-NS3 protease, fluorogenic substrate Ex360/Em465; stronger effect = lower value; z-score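 (tested at a level between 10 and 100 µM)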; 0.18% of 65,000 active; AID 577;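 active means z-score at -3 or under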;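 further: score is relative to mean and spread of the compound wells of a plate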
Target sequence (P06935 1371-1501 limits assumed): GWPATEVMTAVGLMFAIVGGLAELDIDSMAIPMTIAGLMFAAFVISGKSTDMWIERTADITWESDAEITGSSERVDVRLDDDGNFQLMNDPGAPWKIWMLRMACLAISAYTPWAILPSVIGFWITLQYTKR
Target sequence (P06935 1502-1679 limits assumed): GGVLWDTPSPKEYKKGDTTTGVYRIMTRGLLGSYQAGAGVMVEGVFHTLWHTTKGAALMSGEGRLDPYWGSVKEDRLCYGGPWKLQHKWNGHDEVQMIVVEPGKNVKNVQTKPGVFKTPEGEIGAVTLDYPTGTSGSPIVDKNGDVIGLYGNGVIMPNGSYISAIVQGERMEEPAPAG
Numbers without * were called inactive; i = inactive; . = not tested or not shown.

SMILES | MT1-MMP promoter | Hsc70 | WNV NS2B-NS3 inh
O=C(NCc1ccc2c(c1)OCO2)C1CCCN(S(=O)(=O)c2cccs2)C1 (centres undefined) | i | -0.4% | -0.07
CCOC(=O)c1c(N)sc(C(O)(C(F)(F)F)C(F)(F)F)c1-c1ccc(F)cc1 | i | 2.6% | .
O=C(NC1CCCCCC1)C1c2ccccc2C(=O)N1CCCN1CCOCC1 (centres undefined) | i | -0.2% | 1.9
O=C(Nc1cnc2ccccc2c1)c1cccc(-n2cnnn2)c1 | i | -1.2% | 0.23
Cc1ccc(-c2csc(NC(=O)Cc3cccs3)n2)cc1C | i | 4.3% | .
CCOC(=O)c1cccc(NC(=O)CSc2nc3ccccc3c(=O)n2CC)c1 | i | -1.2% | -1.2
O=C(CSCc1ccc(Cl)cc1)Nc1nccs1 | i | 6.2% | .
O=C(c1ccc(C#CC2(O)CCCCC2)cc1)N1CCOCC1 | i | 4.0% | -0.02
Cc1cc(Cl)ccc1OCC(=O)NC1CCCC1 | i | 1.3% | .
CCn1cc(Br)c(C(=O)Nc2ccc(C(=O)OC(C)C)cc2)n1 | i | 5.9% | 0.58
COc1ccc(Cl)cc1NC(=O)/C=C\C(=O)O | i | -11% | .
COc1ccc(CCN(Cc2nc(-c3ccccc3)no2)Cc2nc(-c3ccccc3)no2)cc1OC | i | -4.2% | 0.16
COc1ccc(S(=O)(=O)N(CC(=O)O)c2ccccn2)cc1 | i | 0.3% | .
Cc1c(C#N)c(N=CN(C)C)c(C(=O)c2ccccc2)n1-c1ccc(Br)cc1 | i | -0.4% | .
CCOC(=O)C1=C(c2ccccc2)Nc2ncnn2C1c1ccccn1 (centres undefined) | i | -2.8% | -0.13
COc1cccc(-c2csc(N3CCN(S(=O)(=O)c4ccc(F)cc4)CC3)n2)c1 | i | -14% | 0.02
CCOc1cc(/C=N\O)cc(Cl)c1OCC | i | -3.1% | .
CCOC(=O)CN1C(=O)COc2ccc(Cl)cc21 | i | -4.1% | 0.46
Cc1cccn2c(=O)c3cc(C(=O)NCc4ccccn4)n(C)c3nc12 | i | 13% | 0.94
Nc1nn(S(=O)(=O)c2cccc3nsnc23)cc1-c1ccc(Br)cc1 | i | 2.2% | 0.44
Cn1c(=O)oc2cc(S(=O)(=O)N3CCN(C(=O)c4ccco4)CC3)ccc21 | i | -6.7% | 0.12
CCOC(=O)c1nn(-c2cccc(Cl)c2)c2nc(CC(C)C)c(C#N)c(=O)n12 | i | 0.4% | .
O=C1C(NS(=O)(=O)c2cccs2)=C(N2CCN(c3ccccc3)CC2)C(=O)c2ccccc21 | i | -0.3% | .
COCc1cc(C)nc2sc(C(=O)N3CCN(c4ccccc4)CC3)c(N)c12 | i | 3.1% | 0.39
O=C(Nc1ccccc1)N1CCCC2CCCCC21 (centres undefined) | i | -1.5% | 1.5
Cn1c(CCCNC(=O)c2ccccc2)nc2ccccc21 | i | 0.9% | 0.75
O=C(Nc1ccc(F)c(F)c1)c1ccc(F)c(S(=O)(=O)N2CCOCC2)c1 | i | -3.3% | -0.66
Cc1cc2oc(=O)cc(CSc3nnc(C)n3N)c2cc1C(C)C | i | -1.5% | .
CCOC(=O)Cc1csc(NC(=O)c2cccnc2)n1 | i | -0.1% | 0.84
O=C1CN(C(=O)COC(=O)C2CC(=O)N(Cc3ccco3)C2)c2ccccc2N1 (centres undefined) | i | 3.1% | 0.24
c1ccc(-c2csc(N3CCOCC3)n2)cc1 | i | -4.3% | .
NC(=O)c1ccccc1-c1nc(-c2ccccc2)no1 | i | 2.8% | 0.25
COc1ccc(N(C(=O)c2cccnc2)S(=O)(=O)c2ccc3c(c2)n(C)c(=O)n3C)cc1 | i | 6.0% | -0.2
CCCC1=C(C(=O)OCC)C(c2ccc(F)cc2)n2ncnc2N1 (centres undefined) | i | 2.8% | 1.8
Cc1cc(C)c2[nH]c(=O)c(CN(CC3CCCO3)S(=O)(=O)c3ccc4c(c3)OCCO4)cc2c1 (centres undefined) | i | -6.7% | -1.2
N#CC(C(=O)Nc1ccccc1)=C1CCCCC1 | i | -2.3% | -0.21
O=C(NCCCn1ccnc1)C1CC(c2cccc(Br)c2)=NO1 (centres undefined) | i | 4.7% | -0.93
CC1(C)Cc2ccccc2-c2nnc(SCc3ccccc3)n21 | i | 2.7% | .
c1ccc(Nc2nc(-c3cccs3)cs2)nc1 | i | 5.7% | -0.43
COC(=O)/C=c1/s/c(=C(/C#N)C(=O)NCc2ccccc2)n(-c2ccccc2)c1=O | i | -4.3% | .
O=C(O)C1CC=CCC1C(=O)Nc1ccccc1 (centres undefined) | i | 8.2% | .
CC(CC(=O)c1cccs1)CC(=O)c1cccs1 | i | 1.5% | 0.07
Nc1nnc(SCc2ccccc2F)n1-c1ccccc1 | i | 2.8% | -1.6
COC(=O)c1[nH]c2ccccc2c1NC(=O)CN1CCCc2ccccc21 | i | 6.7% | 0.57
CCCn1c(N2CCN(C)CC2)nc2c1c(=O)[nH]c(=O)n2C | i | -1.8% | .
Cc1nn2c(NCCOCCO)c3c(nc2c1-c1ccccc1)CCCC3 | i | 0.6% | .
O=C(Nc1ccccc1F)c1cc2nc(C(F)F)cc(C(F)F)n2n1 | i | 0.5% | .
Cc1nc2sc(C(c3ccccc3)N3CCN(c4ccccc4F)CC3)c(O)n2n1 (centres undefined) | i | -7.2% | -0.0051
CCC1CCCCN1Cc1ccc(CNS(=O)(=O)c2ccc3c(c2)oc(=O)n3C)o1 (centres undefined) | i | -12% | 0.56
Cc1ccc(NC(=O)CCn2cnc3ccccc3c2=O)cc1Cl | i | -3.4% | 0.69
Continued.
SMILES | MT1-MMP promoter | Hsc70 | WNV NS2B-NS3 inh
CCC(CC)NC(=O)Cc1ccccc1OC | i | 0.7% | .
Cc1nn(-c2ccccc2)c(Cl)c1C(=O)NCC(C)C | i | -4.0% | .
CCOC(=O)CSc1nnc(CNC(=O)c2ccc(OC)cc2OC)n1-c1ccc(OC)cc1 | i | 5.3% | 0.77
O=C(Nc1ncccc1Cl)c1cccc(F)c1 | i | -1.6% | 0.68
CN(c1cccc(NC(=O)CN2C(=O)c3ccccc3S2(=O)=O)c1)S(C)(=O)=O | i | -10% | -1.8
Cc1nc2cc(C(=O)O)ccc2s1 | i | 0.6% | -1.4
Cc1ccc(CSC2=NCCN2C(=O)C2CC2)cc1 | i | 2.0% | -0.15
C(=N\n1cnnc1)/c1ccc(-c2ccccc2)cc1 | i | 2.1% | -0.81
Nc1nonc1C(=O)NCCNC(=O)c1ccccc1F | i | -3.8% | 0.14
O=C(O)C1(P(=O)(c2ccccc2)c2ccccc2)CCC1 | i | 1.2% | -0.61
Cc1cc(Nc2ccccc2)nn1C(=O)c1ccc(Cl)cc1 | i | -1.3% | .
Cc1nn(Cc2ccc(Cl)cc2)c(C)c1NC(=O)c1cc(-c2ccco2)on1 | i | -4.8% | -1.1
Cc1ccc2oc(=O)c3cnn(CC(=O)NC4CCN(Cc5ccccc5)CC4)c3c2c1 | i | -1.0% | -0.76
CCOc1ccc2c(c1)C(C)=CC(C)(C)N2C(=O)Nc1ccccc1 | i | 0.3% | .
O=C(Oc1ccc2c(=O)c(Cl)coc2c1)c1ccncc1 | i | -4.5% | 0.4
CCCCOC(=O)Nc1ccccc1C(N)=O | i | -1.4% | 1.1
O=C(c1cc(-c2cccnc2)nc2ccc(Br)cc12)N1CCN(c2ncccn2)CC1 | i | 1.3% | -0.07
Clc1ccc2c(c1)C(N1CCNCC1)Cc1ccccc1S2 (centres undefined) | i | -1.6% | .
COc1ccc(OC)c(C(=O)N2CCC(C(=O)c3ccc(F)cc3)CC2)c1 | i | 5.3% | .
O=C(c1sc2ccccc2c1Cl)N(Cc1ccco1)C1CCS(=O)(=O)C1 (centres undefined) | i | -1.6% | 1.2
N#CC(C(=O)NCCc1ccccc1)c1nc2ccccc2nc1N1CCOCC1 (centres undefined) | i | -86% | 0.58
Cc1ccc(C(=O)N2CCN(c3ncnc4c3cnn4-c3ccccc3)CC2)cc1 | i | 1.3% | .
Cc1ccc2oc(=O)c3cnn(CC(=O)N4CCc5ccccc5C4)c3c2c1 | i | 7.1% | -0.16
Cc1c(C(C)O)nnn1-c1nonc1N (centres undefined) | i | -4.7% | 0.25
O=C(Nc1c(F)cc(F)cc1Br)c1cc(-c2ccc(O)cc2)on1 | i | -1.2% | 0.66
C=C(C)CC(NCc1ccco1)c1ccc(OC)cc1 (centres undefined) | i | 0.7% | .
CC(C)(C)C1=Nn2c(nnc2C2CCCCC2)SC1 | i | -3.0% | 0.33
Cc1nnc(N(Cc2ccccc2)C(=O)c2cnccn2)s1 | i | 2.0% | 0.72
Cc1nc(N2CCN(c3ccccc3)CC2)[nH]c(=O)c1Cc1ccccc1 | i | -1.4% | 0.95
CCOC(=O)c1cnc(-n2cc(C)cn2)nc1Nc1ccccc1OC | i | -3.0% | 0.95
Cn1cccc1Cc1nnc(SCC(=O)NCCc2ccccc2)n1-c1ccc(F)cc1 | i | 0.5% | -0.68
Cc1c(C(=O)NCCc2ccccc2)oc2ccc(S(=O)(=O)N3CCOCC3)cc12 | i | -6.2% | -0.62
COc1ccccc1OCc1ccc(C(=O)N2CCN(C(=O)c3ccco3)CC2)cc1 | i | -2.3% | -0.84
NC(=O)CCN(Cc1ccccc1)S(=O)(=O)c1ccccc1 | i | -5.0% | -0.16
Cc1cc2nc(CCN3CCOCC3)n(S(=O)(=O)c3ccc(C(C)(C)C)cc3)c2cc1C | i | 3.5% | .
Cc1ccc(CNS(=O)(=O)N(C)C)cc1 | i | 4.2% | .
Cc1cc(C)n(-c2nnc(C)n2/N=C/c2ccco2)n1 | i | -5.4% | 0.31
COc1ccc(C2C(C(=O)Nc3cc(C)on3)c3ccccc3C(=O)N2C)cc1OC (centres undefined) | i | -6.2% | -0.3
COc1ccc(OC)c(C2C(C#N)=C(N)Oc3cc(N)ccc32)c1 (centres undefined) | i | 3.6% | 0.37
Cc1ccc(C(=O)CSC2=NC(N)=C(C#N)C3(CCCCC3)C2C(N)=O)cc1 (centres undefined) | i | -8.5% | -1.1
CC(CN1CCN(C)CC1)OC(=O)c1ccc(Cl)cc1 (centres undefined) | i | -0.2% | 0.16
Cc1nc2c3cnn(-c4ccc(C)c(C)c4)c3ncn2n1 | i | -9.2% | 0.23
c1coc(-c2nc3nc4ccccc4nc3n2CC2CCCO2)c1 (centres undefined) | i | -6.0% | .
CCOC(=O)c1cnc(SCC(=O)Nc2cc(OC)cc(OC)c2)nc1N | i | -0.8% | 0.88
CCOC(=O)C1CCCN(C(=O)Cn2nc(Cc3cccnc3)c3ccccc3c2=O)C1 (centres undefined) | i | 3.2% | -0.88
COc1ccc(N(Cc2ccccc2)S(=O)(=O)c2cccc(C(=O)NC3=NCCS3)c2)cc1 | i | -1.1% | .
CC1CCCC(NC(=O)CC2Nc3ccccc3NC2=O)C1C (centres undefined) | i | -5.0% | -0.77
O=C(Nc1nc2ccc(F)cc2s1)C1CCCO1 (centres undefined) | i | -4.4% | .
CCC(=O)N1CCc2cc(OC)c(OC)cc2C1COc1ccc(C(=O)OC)cc1 (centres undefined) | i | 0.2% | -1.2
CCC(=O)N1CCc2cc(S(=O)(=O)CCC(=O)N3CCc4ccccc4C3)ccc21 | i | -7.8% | 0.08
More results follow.
SMILES | MT1-MMP promoter | Hsc70 | WNV NS2B-NS3 inh
CCOC(=O)c1ccc(NC(=O)N2CC(C)OC(C)C2)cc1 (centres undefined) | i | -1.8% | -0.26
CCc1c(O)nc(SCC(=O)Nc2ccccc2OC)[nH]c1=O | i | 5.1% | -0.61
COc1ccc(S(=O)(=O)NC(CC(=O)NCc2ccc3c(c2)OCO3)c2ccco2)cc1 (centres undefined) | i | -4.9% | -0.23
COc1cccc(-c2nc(-c3ccc(NC(=O)Cc4ccccc4OC)cc3)no2)c1 | i | 6.2% | -1.7
Cn1c(=O)c2c(nc(CN3CCN(C(=O)c4ccco4)CC3)n2Cc2ccc(F)cc2)n(C)c1=O | i | -1.5% | 0.11
